CtBP-E1A inh = inhibitors of CtBP/E1A interaction | AlphaScreen GST-E1A/His-CtBP binding, 1536-well; stronger effect = lower value; control for the full effect not named in the record | activity change, % (test concentration not listed) | hit rate 0.49% among 340,000; in the data active means activity change below about -65%; inconclusive means about -30% to -65%; inactive means above about -30%; also: % is scaled to controls: 0 for no effect and ±100 for the full control effect; compound concentration not given in the record
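In 5 uL wells, 23 nL compound meets equimolar GST-E1A and His-CtBP (5X stock 125 nM each) for 2 h, 37 °C. Beads (5X, 50 ug/mL) then 1 h, 37 °C, dark.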
PINK1 modulator = modulators of PINK1 expression. PINK1 immunofluorescence, high-content cytometry, 24 h. hit rate 0.2% among 410,000. Potency, µM (series often up to 76.6 µM), without a hit: top-dose activation (PINK1 increase), most hits filed as activators; active = well fitted activation curve with a large enough effect; inconclusive = small, poorly fitted or top-dose-only effect; inactive = flat fitted curve, though single readings scatter; cell line not stated here;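 also: potency is read from the fitted curve at half-maximal effect; % of control where 0% means no effect; nearly all actives have a fitted effect of over 65% in size; a mitochondrial uncoupler was the plate control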
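A stable cell line was treated with compounds at 5 concentrations for 24 hours, with CCCP as control. PINK1 levels and mitochondrial localization were measured by immunofluorescence with mitochondrial, cell and nuclear markers after fixation, read by laser-scanning cytometry.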
D2 agonist = activates the human D2 dopamine receptor | activation, % (concentration not given with the values) | P14416 | DiscoveRx PathHunter D2 beta-arrestin, luminescence, 90 min; 100% = 57 uM dopamine signal | hit rate 0.084% among 360,000 | AID 624465; in the data active = activation above about 40%; inconclusive = about 15% to 40%; inactive = below about 15%; also: compound concentration not given in the record; the text of the record calls up to 30% inactive
Target sequence (P14416 whole entry, looked up): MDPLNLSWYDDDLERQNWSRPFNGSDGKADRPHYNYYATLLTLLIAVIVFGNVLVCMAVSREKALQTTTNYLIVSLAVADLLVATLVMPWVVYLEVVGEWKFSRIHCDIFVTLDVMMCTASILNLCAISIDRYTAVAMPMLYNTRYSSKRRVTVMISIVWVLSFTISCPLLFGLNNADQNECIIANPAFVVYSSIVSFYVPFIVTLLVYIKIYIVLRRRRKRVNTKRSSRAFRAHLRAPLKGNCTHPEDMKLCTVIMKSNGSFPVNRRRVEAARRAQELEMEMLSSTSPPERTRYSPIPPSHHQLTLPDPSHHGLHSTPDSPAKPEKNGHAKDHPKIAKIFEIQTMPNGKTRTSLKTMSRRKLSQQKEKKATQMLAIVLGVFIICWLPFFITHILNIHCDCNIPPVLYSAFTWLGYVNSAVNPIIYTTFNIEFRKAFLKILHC
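DiscoveRx PathHunter D2 beta-arrestin cells (2,100/well) attached overnight, then compound-stimulated 90 min at 37 C in HBSS/10 mM HEPES/0.1% Tween-20 buffer; beta-galactosidase complementation read by luminescence after 1 h at ambient temperature. Dopamine 57 uM final (EC100) as control.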
D2 potentiator = potentiates the human D2 dopamine receptor allosterically; P14416; DiscoveRx D2 beta-arrestin cells, luminescence, 90 min; 100% = 57 uM dopamine signal; potentiation, % (test concentration not listed); hit rate 0.23% among 360,000; active = potentiation of 50% or more; inconclusive = 30% to 50%; inactive = 30% or less;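 also: compound concentration not given in the record; tested on top of an EC20 dose of dopamine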
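PathHunter beta-arrestin assay in DiscoveRx D2 cells. Compounds were added with an EC20 of dopamine (50 nM final) for 90 min at 37 deg C. Luminescence was read 1 h after detection reagent, with 57 uM dopamine as the EC100 control.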
TRPML1 ag = activates the human TRPML1 channel | AID 624414 | TRPML1-expressing cells, Ca2+ dye fluorescence, FDSS; host cell line not named in the record; reference of the full effect not given here | Q9GZU1 | activation, % (concentration not given with the values) | hit rate 0.12% among 410,000; in the data active = activation above about 50%; inconclusive = about 30% to 50%; inactive = below about 30%; also: 0% is about no effect; the text of the record puts the active cut at 80%
Target sequence (Q9GZU1 whole entry, looked up): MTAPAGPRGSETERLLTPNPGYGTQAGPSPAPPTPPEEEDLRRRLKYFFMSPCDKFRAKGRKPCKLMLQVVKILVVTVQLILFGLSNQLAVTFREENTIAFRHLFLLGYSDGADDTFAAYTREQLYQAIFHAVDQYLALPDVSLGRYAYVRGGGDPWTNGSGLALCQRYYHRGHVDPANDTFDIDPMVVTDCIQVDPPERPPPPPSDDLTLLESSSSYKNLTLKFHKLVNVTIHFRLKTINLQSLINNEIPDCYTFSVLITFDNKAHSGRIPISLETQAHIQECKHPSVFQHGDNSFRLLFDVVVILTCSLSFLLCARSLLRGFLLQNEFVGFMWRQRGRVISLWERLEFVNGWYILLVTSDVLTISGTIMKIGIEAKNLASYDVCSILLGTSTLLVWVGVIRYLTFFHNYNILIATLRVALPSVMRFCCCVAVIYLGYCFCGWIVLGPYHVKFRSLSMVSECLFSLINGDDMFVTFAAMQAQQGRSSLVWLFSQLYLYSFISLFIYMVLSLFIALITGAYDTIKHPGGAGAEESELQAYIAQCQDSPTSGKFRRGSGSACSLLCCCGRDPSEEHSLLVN
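Kinetic FDSS Ca2+ read in Tet-induced TRPML1-DL cells (ABD Ca8 dye plus quencher, 45-90 min RT loading): baseline, then compound, then 110 s agonist window; EC80 agonist 54-4 at 4uM final added afterwards for a 110 s antagonist window.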
Six1-Eya2 inh = Six1/Eya2 interaction inhibition; Q15475+O00167; AlphaScreen GST-Six1/His-Eya2 binding, biochemical; stronger effect = lower value; control for the full effect not named in the record; activity change, % (test concentration not listed); hit rate 0.56% among 360,000; in the data active = activity change below about -65%; inconclusive = about -30% to -65%; inactive = above about -30%; also: % is scaled to controls: 0 for no effect and ±100 for the full control effect; compound concentration not given in the record
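GST-Six1 + His-Eya2 (5X stock: 250/500 nM); Tris pH 8.0, 300 mM NaCl, 0.05% BSA, 0.02% Tween 20; GSH donor/Ni acceptor beads; 1 h 37 °C dark; AlphaScreen readout.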
* marks the source's active call; other numbers are inactive results; ? = inconclusive; / = not tested or not shown; & = joins results of further samples; [ ] = dose if it differs, or a comment.

SMILES	CtBP-E1A inh	PINK1 modulator	D2 agonist	D2 potentiator	TRPML1 ag	Six1-Eya2 inh
CC(=O)Cc1nsc(NC(=O)C2Cc3ccccc3C(=O)O2)n1 (configuration not stated)	6	0.7%	-3.8	-4	-0.3	4
Cn1ccc2c(-c3ccc(C(C)(C)C)cc3)cc3c(c21)C1CCC3O1 (configuration not stated)	-15	3.0%	-2.2	-3	-0.6	-18
CCCCN(CCCNC(=O)C1CCN(C(=O)c2cc3sccc3n2C)CC1)Cc1ccccc1	3	-0.3%	-4.3	-21	0.1	-1
CCC(=O)Nc1nc(N)n(-c2ccccc2)n1	-2	0.9%	0.2	-1	0.9	-2
Cc1nc(NC(=O)c2cccc(Cl)c2)sc1C(=O)N1CCCCC1	/	5.5%	-2.5	-1	0.5	14
COc1ccc(/C=C/c2ccccc2)cc1[C@H]1[C@H]2C=CC[C@@H](C)[C@@H]2C(=O)N1Cc1ccccc1	22	4.2%	-3.3	-3	2.7	9
CC(C)C(O)(C(=O)NNc1ccccc1)C(C)C	-1	0.7%	-3.7	-8	-0.7	-1
CC(=O)c1ccc(S(=O)(=O)NCC(=O)Nc2nc3ccccc3[nH]2)cc1	-7	3.6%	6.2	-1	1.1	-8
CC12CC3CC(C)(C1)CC(C(=O)NC(=S)N1CCOCC1)(C3)C2	8	/	-2.5	-17	-0.2	-5
COc1cc(S(=O)(=O)NCc2ccc3c(c2)OCO3)ccc1Cl	1	-4.8%[38.3 µM]	-2.0	-23	-0.1	0
CC(C)[C@@H]1Cc2[nH]c(=O)[nH]c(=O)c2[C@H](C)O1	10	-1.1%	/	/	-0.4	2
O=C(OCc1ccc([N+](=O)[O-])cc1Cl)c1cnccn1	-5	-0.6%	1.7	2	0.3	5
O=C1C(=C(O)c2ccccc2)C(=O)c2ccccc21	-7	-2.1%[38.3 µM]	-4.3	-8	0.9	-3
O=C(COc1ccc(Cl)cc1Cl)NCC(=O)N/N=C/c1c[nH]c2ccccc12	4	7.9%	0.3	0	-0.4	5
Cc1cccc(OCC(=O)N2CCc3ccccc3C2)c1	2	1.0%	-1.1	-15	0.6	6
CCNC(=O)NC(=O)CSc1nc2ccccc2n1CCOC	-2	-2.4%	-3.0	-1	-0.5	-1
CCCOc1cccc(C(=O)Nc2cccc(NC(=O)c3ccco3)c2)c1	-5	-0.4%	-2.0	-12	0.4	-13
COc1ccc(C)cc1NC(=O)C1CCN(S(=O)(=O)c2cccs2)CC1	0	11%	-3.5	-9	-1.5	3
COc1cc(NC(=O)COc2ccccc2)c(OC)cc1NC(C)=O	11	1.4%	2.7	-52	-0.4	-2
COCC(=O)Nc1ccc(Br)c(C)c1	9	3.6%	-0.7	-3	0.2	3
COc1ccc(C(CNC(=O)COc2ccc([N+](=O)[O-])cc2)N2CCCCC2)cc1 (configuration not stated)	-1	-1.5%	-4.2	-30	0.2	-3
Cc1ccc(NC(=O)Cn2c(=O)oc3ccccc32)cc1C	1	3.8%&0.5%	-0.8	0	-0.6&-0.9	6
Cc1ccc(C)[n+](CC(=O)N2CCCCC2)c1	-3	-0.1%	-1.7	-5	0.5	0
Cc1ccc(S(=O)(=O)NCCC(=O)NC2CCN(Cc3ccccc3)CC2)cc1	-1	-2.1%	-4.2	-29	-1.0	10
CCOC(=O)N/N=C/c1c(F)cccc1F	8	1.3%	-0.4	4	0.0	2
Cn1ccnc1SCC(=O)NC1(C#N)CCCCC1	7	3.1%	2.1	-3	0.7	-2
CCOc1ccc(CCNC(=O)CN2C(=O)NC3(CCc4ccccc43)C2=O)cc1OCC (configuration not stated)	10	6.9%	6.5	14	0.4	3
CN(Cc1ccccc1)Cc1ccccc1C(O)c1ccccc1 (configuration not stated)	-16	8.9%	-1.5	-23	1.8	16
O=c1c2cc(NC(=S)NC3CC3)ccc2nc2n1CCCCC2	-7	2.5%	-6.2	-1	0.4	-3
COc1ccc(Cl)cc1NC(=O)CSc1nc(=O)n(CCN(C)C)c2c1CCCC2	-5	0.6%	-2.0	-27	-0.3	2

Three successive compounds already listed, for reference:
SMILES	CtBP-E1A inh	PINK1 modulator	D2 agonist	D2 potentiator	TRPML1 ag	Six1-Eya2 inh
CN(Cc1ccccc1)Cc1ccccc1C(O)c1ccccc1 (configuration not stated)	-16	8.9%	-1.5	-23	1.8	16
O=c1c2cc(NC(=S)NC3CC3)ccc2nc2n1CCCCC2	-7	2.5%	-6.2	-1	0.4	-3
COc1ccc(Cl)cc1NC(=O)CSc1nc(=O)n(CCN(C)C)c2c1CCCC2	-5	0.6%	-2.0	-27	-0.3	2

Going on with the list:
SMILES	CtBP-E1A inh	PINK1 modulator	D2 agonist	D2 potentiator	TRPML1 ag	Six1-Eya2 inh
Cc1cccc(NC(=O)C(=O)C2C(=O)Nc3ccccc32)c1 (configuration not stated)	-23	-2.5%	-3.1	-5	1.4	11
C/C(=N\NC(=O)c1ccc(Cl)cc1)c1ccc(N2CCOCC2)cc1	-15	4.2%	-1.4	-4	-0.8	5
CCN(CC)S(=O)(=O)c1cc(Cl)ccc1OC	7	0.6%	-3.7	7	-0.6	6
CC[C@]12c3[nH]c4cc(-c5ccco5)ccc4c3CCN1C(=O)[C@@H](CC(=O)NCCCN(C)C)C[C@@H]2C(=O)N1CCN(C(=O)C2CC2)CC1	-6	0.6%	-2.5	-7	-0.6	-5
NCC(=O)Nc1ccc(Br)cc1	-8	-0.1%	-3.1	1	0.5	4
COCCNC(=O)NC(=O)CSc1nc(C)c(C)c(C)n1	-6	2.0%	-3.1	2	-0.4	20
COc1cc(OC)cc(-c2c(-c3ccc(F)cc3)c3cc(-c4ccc(SC)cc4)ccc3n2C)c1	1	1.8%	-1.0	-11	-0.4	1
O=C(Nc1ccnn1C1CCN(C(=O)c2cnsn2)CC1)c1cccc(F)c1	-5	0.4%	-3.5	-22	0.0	3
CSc1ccc(C2N=C(c3ccccc3)NO2)cc1 (configuration not stated)	1	2.6%	-0.5	-4	1.7	2
Cc1nn(CC(=O)N(C)c2c(N)n(Cc3ccccc3)c(=O)[nH]c2=O)c(C)c1[N+](=O)[O-]	-8	-2.7%	-4.5	-1	-0.3	9
O=C(Nc1nnc(SCc2ccccc2F)s1)C1=COCCO1	3	0.1%	-1.2	-11	1.5	1
CCOC(=O)/C=C/S(=O)(=O)c1ccc(NC(C)=O)cc1	-6	-3.1%	0.1	-25	5.9	3
O=S1(=O)CC(N2CCCCC2)CN1Cc1cn(Cc2ccc(Cl)cc2)nn1 (configuration not stated)	2	-0.2%	/	/	-0.5	1
CCOc1ccc(N=CNc2ccc(OCC)cc2)cc1	-11	-0.1%	0.0	-7	4.0	-2
Cc1ccc(N(CC(=O)NC2CCCCC2)C(=O)CNC(=O)c2cccs2)cc1	-2	1.8%	-14	-13	-0.1	3
CC1(C(=O)Nc2ccc(F)c(Cl)c2)Cc2c(-c3cccc(C(N)=O)c3)ccnc2O1 (configuration not stated)	-24	0.9%	14	9	-1.1	-22
CCCN1CN(c2ccccc2)C(=S)N(c2ccccc2)C1	7	0.0%	1.2	-7	0.2	7
Cc1ccc(C(=O)O)cc1S(=O)(=O)Nc1ccccc1C(=O)NC1CC1	-1	0.3%	-0.9	-1	0.0	5
O=C(CCN1C(=O)C2CC=C(Cl)CC2C1=O)NC1CCCCC1 (configuration not stated)	-1	3.0%[38.3 µM]	-1.9	-1	3.6	4
Cc1nn(CC(=O)Nc2ccc3c(c2)OCO3)c(C)c1Cl	/	-1.2%	-2.3	-8	0.6	-11
CCOC(=O)C1(CCOc2ccccc2)CCN(Cc2ccc(OCC)c(CO)c2)CC1	-7	2.9%	-0.1	-12	0.4	0
Clc1ccc(Cn2cc(/C=N/n3cnnc3)c3ccccc32)cc1	6	1.7%	3.1	-3	0.0	-4
CN(C)c1ccc(/C=N/NC(=O)C(O)c2ccc(Br)cc2)cc1 (configuration not stated)	/	-0.3%	-7.0	-54	0.0	-19
CC(=O)Nc1nc(C)nc(-c2ccccc2)c1C(C)=O	8	1.9%	-2.4	7	-0.6	1
CSc1ncc(Cl)c(C(=O)Nc2cc(C)ccc2C)n1	-1	1.0%	1.7	-4	1.1	-3
Nc1ccc(-c2nc3ncccc3o2)cc1	4	0.3%	-3.2	-1	-0.1	-6
COc1ccc(OC)c(NC(=O)COC(=O)C2CCC2)c1	17	-0.2%	-0.4	-15	-0.6	-1
CC1CCN(C(=S)NC(=O)c2ccc(F)cc2)CC1	11	4.0%	-2.6	-3	-0.2	1
CC1(C(=O)Nc2ccc3[nH]ncc3c2)CCN1C(=O)CC(c1ccccc1)c1ccccc1 (configuration not stated)	-6	-0.8%	-3.7	-14	-0.9	-12
CCc1ccc(CNC(=O)Cc2ccc(NC(=O)C3=C(C)OCCS3)cc2)cc1	0	10%	-0.3	-2	0.1	-11
COc1ccc(C(C(=O)NC2CCCC2)N(C(=O)c2snc(-c3ccc(F)cc3)c2N)c2cccc(F)c2)cc1 (configuration not stated)	-1	?	-1.7	-8	-0.7	1
Cc1cccc(/C=N/NC(=O)c2cc(C3CC3)nc3ccccc23)n1	/	-0.9%	5.8	-4	3.4	-16
Cc1c(C(=O)N2CCOCC2)oc2ccc(S(=O)(=O)N3CCCC3)cc12	4	0.9%	3.7	19	1.1	3
CCN(C[C@H]1N[C@@](C)(C(=O)OC)[C@H]2C(=O)N(Cc3ccccc3)C(=O)[C@@H]12)S(=O)(=O)c1ccc(C(C)(C)C)cc1	-5	0.2%	-1.7	-9	2.1	-8
Clc1ccc(N2CCN(Cc3ccc(Br)o3)CC2)cc1	-1	8.9%	-1.3	-20	0.3	-2
O=C(O)c1ccc(N=Cc2nc(-c3ccco3)oc2O)cc1	/	0.4%	4.1	-34	2.3	-8
COc1ccccc1NS(=O)(=O)c1ccc2c(c1)n(C)c(=O)n2C	-21	1.7%[38.3 µM]	-0.5	1	1.5	-1
Cc1cccc2[nH]c(CN(C)C(=O)C3CCC(=O)N(CCc4ccccc4)C3)nc12 (configuration not stated)	-2	-1.5%	-2.8	-19	1.0	9
Cc1cccc(NC(=S)NN2CCN(C)CC2)c1	5	-1.6%	-1.9	-20	0.4	3
Cc1ccsc1-c1cc(C(=O)O)c2c(ccc3ccccc32)n1	3	-1.6%	0.9	-5	-0.5	-17
COC(=O)c1[nH]c2cc(OC)c(OC)cc2c1NC(=O)CN1C[C@H]2C[C@@H](C1)c1cccc(=O)n1C2	3	0.2%	-2.5	-1	-1.0	0
COC(=O)c1ccc(C(=O)OC)c(NC(=O)CN(C)Cc2ccccc2)c1	-17	1.2%	-2.0	-1	1.0	12
Cn1c(SCC(=O)N2CCOCC2)nnc1-c1cccc(NC(=O)c2ccccc2F)c1	1&1	?	1.3	14&-7	0.3&0.5	-8&-2
CCOc1ccc(Cc2nc(N)nc(N)n2)cc1	8	3.9%	-0.8	-2	-0.3	4
O=C(O)C1CC(=O)N(c2ccc(F)cc2)C1 (configuration not stated)	4	-0.2%	0.5	26	-0.3	-1
CCOc1ccc(C2=CSC3=NCCN23)cc1	0	-0.6%	0.6	1	-1.6	-20
